Screening data from PubChem BioAssay.
MT1-MMP act inh: blockers of MT1-MMP proenzyme processing, primary screen, HT1080 RFP-PRO-GFP cells, GFP/RFP fluorescence. GFP/RFP ratio fluorescence, overnight; percent of plate control window, DMSO zero. 360,000 tested, 0.061% active. GFP/RFP ratio change, % at 20 µM. AID 651647, 2012;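 active = GFP/RFP ratio change of at least 30% with cell ATP level not reduced by more than half and red fluorescence within 50% of control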; note: strong numbers were not always called active
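system = RFP-PRO-GFP reporter HT1080 cells | dosing = 20 µM single dose, 1% DMSO | timing = overnight cell settling, then overnight compound exposure, 37 °C, 5% CO2 | read-out basis = GFP/RFP fluorescence ratio | controls = DMSO and RFP-L50D-GFP cell wells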
UUG fidelity: modulators of yeast start codon fidelity, primary screen, whole organism, S. cerevisiae, single point, plate reader | 350,000 tested, 0.13% active | activity score, % at 18.7 µM | S. cerevisiae UUG-firefly luciferase reporter, luminescence/redox ratio;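 active = replicate mean at a twofold rise or more, about +100% in these data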;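 note: firefly luciferase made from a UUG start codon reports start codon fidelity; reporter light over untreated wells divided by growth signal over untreated wells; some hits fall short of that in this replicate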
eIF4H FP inh: human eIF4H binding inhibitors, primary screen, translation initiation inhibitor project, biochemical, uHTS, fluorescence polarization; inhibition, % at 35 µM; 290,000 tested, 0.94% active; eIF4H fluorescence polarization binding assay;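 active = 50% or more with normal probe brightness, or confirmed in later tests; about a fifth of its hits are not listed in these tables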;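 note: calls also rest on retests at 20 µM and on dose response follow-up; 0% = protein and probe with vehicle and 100% = probe without protein; strong numbers were not always called active; many hits fall short of the cut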
PABP polyA inh: PABP poly(A) RNA binding inhibitors, primary screen, biochemical, fluorescence polarization, uHTS; inhibition, % at 35 µM; 290,000 tested, 1% active;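 active = 50% or more with normal probe brightness, or confirmed in later tests; about a fifth of its hits are not listed in these tables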;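 note: calls also rest on retests at 20 µM and on dose response follow-up; controls were probe without protein and protein plus probe with vehicle; some compounds called inactive have numbers as strong as hits; many hits fall short of the cut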
Rce1 inhib: yeast Rce1p protease inhibitors, primary screen, biochemical, fluorescence, cell-free homogeneous; CAAX prenyl protease 2 (Saccharomyces cerevisiae (strain ATCC 204508 / S288c)), Q03530; yeast membranes, quenched prenylated peptide cleavage fluorescence; calls only; 290,000 tested, 0.27% active; AID 2563, 2010;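 active = fall in fluorescence gain of 50% or more versus controls, with final raw signal at or below 3038400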;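 note: plate controls were neutral control wells for no effect and wells lacking membranes for full effect; tested at 10 µM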
Target sequence (Q03530 whole entry, looked up): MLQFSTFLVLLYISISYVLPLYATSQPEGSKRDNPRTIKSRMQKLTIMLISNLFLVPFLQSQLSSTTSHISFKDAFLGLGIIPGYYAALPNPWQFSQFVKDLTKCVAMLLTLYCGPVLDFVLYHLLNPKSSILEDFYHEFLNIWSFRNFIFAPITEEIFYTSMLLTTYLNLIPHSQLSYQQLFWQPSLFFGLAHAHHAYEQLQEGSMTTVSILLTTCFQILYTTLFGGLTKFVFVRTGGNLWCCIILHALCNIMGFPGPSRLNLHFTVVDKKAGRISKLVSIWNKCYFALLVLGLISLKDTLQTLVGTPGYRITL
HIV Env fusion: inhibitors of HIV-1 Env-driven cell-cell fusion, primary screen, HeLa-JRFL effector, CEM21 target cells, luciferase | inhibition, % at 12.3 µM | 360,000 tested, 1.1% active | AID 651610, 2012;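 active = mean replicate inhibition score of at least 50 and every replicate individually at or above 50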;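 note: 0% = plate neutral controls and 100% = maraviroc near 300 nM; one replicate is shown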
CSC inhib: cancer stem cell viability inhibitors, primary screen, luminescence | cancer stem cell-like cells viability | AID 2717, 2010 | inhibition, % at 7.5 µM | 300,000 tested, 1.1% active;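 active = mean at 75% or more and at least half the replicates too; tested in HMLE shEcad cells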;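 note: 0% = median of negative and 100% = median of positive control wells; the first replicate is given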
eIF4H FP inh retest: recorded beside eIF4H FP inh, whose call it bears; inhibition, %; compound at 20 µM; confirmation average;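 mean of two retest wells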
PABP polyA inh retest: also measured in PABP polyA inh; calls as there; inhibition, %; compound at 20 µM; confirmation repeats;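 mean of two retest wells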
MT1-MMP act inh RFP: further read-out of MT1-MMP act inh, marked with its call; RFP signal change, %; measured here: RFP expression control read;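 0 = vehicle wells; hits needed this value within 50% of zero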
The depositor's hits bear a star; i = inactive; . = not tested or not shown; & = joins results of further samples; [ ] = remark or other dose. A portion of the library. The share of hits here may be higher or lower than overall.

SMILES | MT1-MMP act inh | MT1-MMP act inh RFP | UUG fidelity | eIF4H FP inh | PABP polyA inh | Rce1 inhib | HIV Env fusion | CSC inhib | others
Clc1ccc(CCNc2ncnc3nc[nH]c23)cc1 | -4 | -26 | -11 | -3 | -10 | i | 41 | 4
O=C1N=C(N2CCc3ccccc3C2)S/C1=C\c1ccc(O)cc1 | 1 | 2 | 376* | -6 | -11 | i | -16 | -1
Nc1sc(-c2ccccc2)c(Cc2ccccc2)c1C(=O)O | -4 | -2 | . | -4 | -9 | i | 13 | 2
O=[N+]([O-])c1ccc(N=Cc2c(O)ccc3ccccc23)cc1 | 1 | 7 | -13 | 1 | 15 | i | 22 | 12
CC1CC2(NC(=O)NC2=O)C(C)CN1C (stereo not drawn) | 9 | 3 | -26 | 3 | -1 | i | . | -5
COc1ccc2c(ccn2S(=O)(=O)c2ccccc2)c1 | 5 | -8 | -2 | 0 | 6 | i | 6 | .
CC(c1ccon1)N(C)C(=O)c1cccc(OC2CCN(S(C)(=O)=O)CC2)c1 (stereo not drawn) | 4 | -5 | -10 | . | . | . | 1 | .
CC(C)OC(=O)c1ccc(N2C(=O)C3CC=CCC3C2=O)cc1 (stereo not drawn) | 1 | 1 | 6 | 8 | 2 | i | -5 | 15
CCOc1ccc(NC(=O)CCNC(=O)Cn2cnc3ccccc3c2=O)cc1 | 1 | 2 | -16 | 4 | 0 | i | -33 | -14
CC(C)[C@@H](C(=O)NC1CCN(Cc2ccccc2)CC1)N1C(=O)N2CCc3c([nH]c4ccccc34)[C@@]2(C)C1=O | 0 | -7 | -10 | -6 | 9 | i | . | 9
COc1ccc(OC)c2c1cc(C(=O)N[C@@H](Cc1ccccc1)C(=O)O)n2C | 7 | 9 | -11 | 2 | 5 | i | -28 | 5
O=C(N/N=C/c1cc(Br)c(O)c(Br)c1O)c1cccnc1 | 0 | 2 | -21 | 30 | 16 | i | 21 | 55
CCOC(=O)c1ccc(NC(=O)c2ccc(NC(=O)C3CCCO3)cc2)cc1 (stereo not drawn) | 5 | -13 | -4 | 3 | 0 | i | -3 | -2
CCc1cccc(NC(=O)CN(c2ccc(OC)cc2)S(=O)(=O)c2c(C)n[nH]c2C)c1 | 6 | 3 | -16 | 0 | -11 | i | -48 | -6
COc1cccc(N2CCN(CC(=O)Nc3nc(C)c(C(=O)N(C)C)s3)CC2)c1 | 4 | -2 | 6 | 0 | -2 | i | -1 | -7
O=C(CCC(=O)Nc1cccnc1)Nc1cccnc1 | -1 | 1 | . | . | . | i | -11 | -4
CCC(C)NS(=O)(=O)c1ccc(OCC(=O)NCc2ccc(OC)cc2)cc1 (stereo not drawn) | -1 | -1 | . | -3 | 5 | i | -1 | -9
O=C(Nc1ccc(N2CCOCC2)c(Cl)c1)c1cccc(F)c1 | 3 | -1 | -16 | -14 | 12 | . | . | -2
Cc1cc2ncn(C3CC(=O)N(Cc4ccccc4)C3=O)c2cc1C (stereo not drawn) | 20 | -1 | -5 | 9 | -3 | i | . | -2
O=c1ccnc(Nc2ccc3c(c2)OCCO3)[nH]1 | 1 | 1 | . | -1 | -6 | i | 24 | -17
CC(=O)c1sc(NC(=O)CCOc2ccccc2)nc1C | 2 | 5 | . | -6 | 0 | i | 6 | .
COc1ccc2[nH]c3c(c2c1)CCN1C(=O)N([C@@H](C)C(=O)NCc2ccc(C)cc2)C(=O)[C@]31C | 10 | -3 | -23 | -1 | 10 | i | . | -15
COc1ccc(Nc2ncnc3c2cnn3-c2ccccc2)cc1OC | 0 | -4 | -22 | -1 | -19 | i | -14 | -5
COc1ccc(CNS(=O)(=O)c2ccc3c(c2)NC(=O)CS3)cc1 | -2 | -2 | -41 | 1 | 8 | i | -2 | 14
O=C(CSc1ccccc1)N/N=C/c1ccccc1O | 3 | 1 | . | 3 | 12 | i | 6 | 1
CCN1CCN(Cc2c(O)c(Cl)cc3c(C)cc(=O)oc23)CC1 | 4 | 12 | -24 | 32 | 38 | i | -30 | 5
CCCCCCSc1ccc([C@@H]2[C@H]3C(=O)N(C)C(=O)[C@H]3[C@]3(C(=O)OC)CCCCN23)cc1OC | -7 | -3 | 0 | . | . | . | 2 | -10
CN1CCN(c2ccccc2NC(=O)COc2ccc(Cl)cc2)CC1 | -3 | -3 | -3 | -11 | -4 | i | 2 | -14
Cc1cccc(NC(=O)C2CCCN(c3cnccn3)C2)c1 (stereo not drawn) | -1 | 3 | -5 | -2 | 4 | i | 2 | .
CCN(C(C)=O)N(CC)c1nc(Cl)nc(NC(C)C)n1 | 0 | 0 | . | 1 | -4 | i | 12 | 5
O=C(Nc1cccc(F)c1)N1CCCCCC1 | -1 | 4 | -7 | -6 | -6 | i | 15 | -1
O=C(CN1CCN(c2ccc(O)cc2)CC1)N(C1CC1)C1CCS(=O)(=O)C1 (stereo not drawn) | 2 | 3 | -10 | . | . | . | -1 | 6
CN1CCN(C(=S)c2ccc(-c3cccc([N+](=O)[O-])c3)o2)CC1 | -1 | -2 | . | 5 | 16 | i | -107 | 1
COc1ccc(CNC(=O)C2CCCN(S(=O)(=O)c3cc(C)ccc3OC)C2)cc1 (stereo not drawn) | 1 | -7 | 24 | -8 | 2 | i | 5 | -4
NC1=NC(=O)/C(=C\c2cccnc2)S1 | -18 | -15 | . | -6 | 4 | i | 42 | 1
S=C(Nc1ccc(Nc2ccccc2)cc1)NC1CCCCCC1 | -2 | -22 | . | -7 | 1 | i | 35 | 78*
COCCN(C(=O)c1cc(-c2ccco2)nc2ccccc12)c1c(N)n(Cc2ccccc2)c(=O)[nH]c1=O | 1 | 2 | 14 | . | . | . | . | -6
COc1ccc(CCNC(=O)CSc2nnc(CNC(=O)c3cccs3)o2)cc1OC | -6 | -2 | -10 | -7 | 0 | i | . | -5
CCOC(=O)c1ccc2[nH]c(C)cc(=O)c2c1 | 0 | -3 | -24 | 0 | 0 | i | . | -1
COc1ccccc1NC(=O)N1CCCC(CNC(=O)c2ccccc2Cl)C1 (stereo not drawn) | -1 | 1 | 1 | -11 | 1 | i | -2 | -12
OCCNC(=S)NC1CCCCC1 | 12 | 8 | -15 | -5 | 1 | i | -76 | -3
CN(C(=O)CSc1nc2cc(C(=O)O)ccc2c(=O)n1Cc1ccccc1)C1CCS(=O)(=O)C1 (stereo not drawn) | 3 | 2 | . | 3 | -15 | i | 19 | -13
CCC(=O)Nc1cc(NC(=O)CSc2ncc(-c3ccc(F)cc3)n2Cc2ccco2)ccc1C | 5 | 1 | -23 | -1 | -4 | i | -245 | 61
CC(=O)C1=C(O)C(=O)N(c2cccnc2)C1c1cccc([N+](=O)[O-])c1 (stereo not drawn) | -4 | -2 | . | 1 | 2 | i | 8 | -6
COc1ccc(Cc2nnc(NC(=O)CSc3ccc(C)cc3)s2)cc1 | -1 | 1 | 5 | -1 | -17 | i | -5 | -6

Random excerpt: 6 compounds from above, in no set order.
SMILES | MT1-MMP act inh | MT1-MMP act inh RFP | UUG fidelity | eIF4H FP inh | PABP polyA inh | Rce1 inhib | HIV Env fusion | CSC inhib | others
CCOC(=O)c1ccc2[nH]c(C)cc(=O)c2c1 | 0 | -3 | -24 | 0 | 0 | i | . | -1
COc1ccc(CNC(=O)C2CCCN(S(=O)(=O)c3cc(C)ccc3OC)C2)cc1 (stereo not drawn) | 1 | -7 | 24 | -8 | 2 | i | 5 | -4
S=C(Nc1ccc(Nc2ccccc2)cc1)NC1CCCCCC1 | -2 | -22 | . | -7 | 1 | i | 35 | 78*
O=C(Nc1cccc(F)c1)N1CCCCCC1 | -1 | 4 | -7 | -6 | -6 | i | 15 | -1
CCC(=O)Nc1cc(NC(=O)CSc2ncc(-c3ccc(F)cc3)n2Cc2ccco2)ccc1C | 5 | 1 | -23 | -1 | -4 | i | -245 | 61
COc1ccccc1NC(=O)N1CCCC(CNC(=O)c2ccccc2Cl)C1 (stereo not drawn) | -1 | 1 | 1 | -11 | 1 | i | -2 | -12

(listing goes on)
SMILES | MT1-MMP act inh | MT1-MMP act inh RFP | UUG fidelity | eIF4H FP inh | PABP polyA inh | Rce1 inhib | HIV Env fusion | CSC inhib | others
CN(C(=O)COc1nnc(-c2cccs2)c(-c2cccs2)n1)c1ccccc1 | 0 | -2 | -33 | -8 | -1 | i | . | 17
CC(=O)Cc1nsc(NC(=O)c2ccc(Br)o2)n1 | 0 | -1 | -15 | 2 | -1 | i | . | -3
COc1ccc(C(=O)C2CCCN(C3Cc4ccccc4C3)C2)c(OC)c1 (stereo not drawn) | -7 | 0 | . | 0 | -2 | i | 26 | 16
NC(=O)c1nsc(C(=O)N(Cc2cccnc2)C(C(=O)NCc2ccc(F)cc2)c2ccc(F)cc2)c1N (stereo not drawn) | -7 | -3 | -10 | -1 | 2 | i | -9 | -4
O=C(CCCn1c(SCc2cc(=O)n3ccccc3n2)nc2ccccc2c1=O)NCC1CCCO1 (stereo not drawn) | -9 | -4 | 29 | 9 | 6 | i | 12 | -11
Cc1cc(C(=O)N/N=C/c2cccnc2)n[nH]1 | 0 | -2 | -3 | -11 | -3 | i | -23 | .
CN(C)CCCNc1ccc(S(N)(=O)=O)cc1[N+](=O)[O-] | 7 | 16 | . | 7 | -4 | i | 5 | -6
O=C(c1ccccc1)N1CCN(C(=O)c2nn3c(C(F)(F)F)cc(-c4ccco4)nc3c2Br)CC1 | 2 | 3 | -6 | 69* | 15 | i | 29 | . | eIF4H FP inh retest=55*;PABP polyA inh retest=23
O=C(c1ccco1)N1CCN(C(=O)c2snc3ccc(Cl)cc23)CC1 | 3 | 5 | -20 | -4 | 7 | i | . | 0
N/C(CC(=O)Nc1ccc(F)cc1F)=N\OC(=O)c1cccs1 | 2 | -1 | . | 0 | -11 | i | -19 | -3
CCOC(=O)C1CCN(C(=O)c2ccc(OCC)c(OCC)c2)CC1 | -3 | 1 | 6 | -3 | -11 | i | . | -10
CCN1C(=O)c2ccccc2S(=O)(=O)c2ccc(C(=O)NCc3cccnc3)cc21 | 0 | 1 | -9 | 4 | 2 | i | -40 | -8
CCC(C)NCCCOc1cc(Cl)ccc1Cl (stereo not drawn) | 2 | 4 | -6 | -1 | -1 | i | -47 | 19
CCN(CC)c1ccc(/C=N/NC(=O)OC)c(O)c1 | 7 | 6 | -29 | 1 | 10 | i | . | -9
O=C(Nc1ccccc1N1CCCC1)C1CCN(S(=O)(=O)c2ccccc2)CC1 | 1 | -1 | . | . | . | i | -6 | -2
Cc1noc(C)c1NC(=O)N(C)C[C@H]1Oc2ccc(NC(=O)Nc3ccc4c(c3)OCO4)cc2C(=O)N([C@H](C)CO)C[C@@H]1C | 1 | 4 | 6&-5 | . | . | . | 3[16.7 µM] | -2
Cc1ccnc(NC2c3ccccc3C(=O)N2Cc2ccccc2Cl)c1 (stereo not drawn) | -5 | -4 | -8 | -2 | 12 | i | -47 | .
C/C(=N\NC(=S)NCc1ccccc1)c1ccc(C(C)(C)C)cc1 | -1 | 1 | -28 | 7 | -2 | i | 0 | 24
COc1ccc(NC(=O)Nc2ccc3c(c2)N(C)C(=O)CS3)cc1Cl | 6 | -3 | -16 | 2 | -9 | i | 76* | 17
Cc1ccc(S(=O)(=O)CCSC(=N)N)cc1 | -7 | -6 | -2 | -1 | -1 | i | 11 | 34
N#Cc1nc(-c2ccc(OCc3ccccc3Cl)cc2)oc1NCCCn1ccnc1 | . | . | . | 6 | 1 | i | . | 94*
